PABP polyA inh – PABP-poly(A) binding inhibition; 290,000 compounds, 1% hits; AID 2014; PABP-poly(A) RNA binding, fluorescence polarization; inhibition, % at 35 µM;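 active = 50% or more with normal probe brightness, or confirmed in later tests; about a fifth of its hits are not listed in these tables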;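 note: calls also rest on retests at 20 µM and on dose response follow-up; controls were probe without protein and protein plus probe with vehicle; some compounds called inactive have numbers as strong as hits; many hits fall short of the cut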
eIF4H FP inh – inhibitors of RNA binding by human eIF4H; 290,000 compounds, 0.94% hits; Q15056; eIF4H fluorescence polarization binding assay; inhibition, % at 35 µM; AID 2012;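 active = 50% or more with normal probe brightness, or confirmed in later tests; about a fifth of its hits are not listed in these tables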;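 note: calls also rest on retests at 20 µM and on dose response follow-up; 0% = protein and probe with vehicle and 100% = probe without protein; strong numbers were not always called active; many hits fall short of the cut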
MT1-MMP act inh – inhibitors of human MT1-MMP activation | P50281 | AID 651647 | 360,000 compounds, 0.061% hits | HT1080 RFP-PRO-GFP cells, GFP/RFP ratio fluorescence, overnight; percent of plate control window, DMSO zero | GFP/RFP ratio change, % at 20 µM;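 active = GFP/RFP ratio change of at least 30% with cell ATP level not reduced by more than half and red fluorescence within 50% of control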; note: strong numbers were not always called active
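Material: RFP-PRO-GFP reporter HT1080 cells. Dosing: single-point 20 µM compound, 1% DMSO. Controls: DMSO and RFP-L50D-GFP cell wells. Timing: cells overnight before dosing, compound overnight, 37 °C, 5% CO2. Measure: GFP/RFP fluorescence ratio.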
Rce1 inh – blocks yeast Ras-converting enzyme | yeast membranes, quenched prenylated peptide cleavage fluorescence | calls only | 290,000 compounds, 0.27% hits | AID 2563;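 active = fall in fluorescence gain of 50% or more versus controls, with final raw signal at or below 3038400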;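 note: plate controls were neutral control wells for no effect and wells lacking membranes for full effect; tested at 10 µM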
Target sequence (Q03530 whole entry, looked up): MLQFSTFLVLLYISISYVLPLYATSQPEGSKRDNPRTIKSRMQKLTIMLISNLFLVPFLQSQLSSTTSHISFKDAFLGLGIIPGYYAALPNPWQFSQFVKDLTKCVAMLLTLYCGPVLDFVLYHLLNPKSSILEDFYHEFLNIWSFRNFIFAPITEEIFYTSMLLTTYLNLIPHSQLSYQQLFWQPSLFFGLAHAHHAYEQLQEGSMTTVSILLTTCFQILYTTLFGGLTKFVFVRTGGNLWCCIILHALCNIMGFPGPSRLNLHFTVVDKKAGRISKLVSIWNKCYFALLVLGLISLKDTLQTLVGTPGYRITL
Env fusion inh – inhibitors of HIV Env-mediated cell fusion | HeLa-JRFL Env/CEM21 cell fusion, luciferase | inhibition, % at 12.3 µM | 360,000 compounds, 1.1% hits | AID 651610;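 active = mean replicate inhibition score of at least 50 and every replicate individually at or above 50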;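 note: 0% = plate neutral controls and 100% = maraviroc near 300 nM; one replicate is shown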
CSC inhib – blocks cancer stem cells; cancer stem cell-like cells viability, luminescence; inhibition, % at 7.5 µM; 300,000 compounds, 1.1% hits; AID 2717;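 active = mean at 75% or more and at least half the replicates too; tested in HMLE shEcad cells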;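 note: 0% = median of negative and 100% = median of positive control wells; the first replicate is given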
Yeast UUG start – yeast start codon fidelity modulation; S. cerevisiae UUG-firefly luciferase reporter, luminescence/redox ratio; activity score, % at 18.7 µM; 350,000 compounds, 0.13% hits;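 active = replicate mean at a twofold rise or more, about +100% in these data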;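 note: firefly luciferase made from a UUG start codon reports start codon fidelity; reporter light over untreated wells divided by growth signal over untreated wells; some hits fall short of that in this replicate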
eIF4H FP inh retest – recorded beside eIF4H FP inh, whose call it bears; inhibition, %; compound at 20 µM; confirmation average;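 mean of two retest wells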
PABP polyA inh retest – also measured in PABP polyA inh; calls as there; inhibition, %; compound at 20 µM; confirmation repeats;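 mean of two retest wells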
MT1-MMP act inh RFP – further read-out of MT1-MMP act inh, marked with its call; RFP signal change, %; measured here: RFP expression control read;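 0 = vehicle wells; hits needed this value within 50% of zero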
The depositor's hits bear a star; i = inactive; · = not tested or not shown; & = joins results of further samples.

SMILES	PABP polyA inh	eIF4H FP inh	MT1-MMP act inh	MT1-MMP act inh RFP	Rce1 inh	Env fusion inh	CSC inhib	Yeast UUG start	others
CN(Cc1ccccc1)c1ccc(N2C(=O)CCCC2=O)cc1[N+](=O)[O-]	1	-2	5	1	i	0	0	-4
COc1ccccc1OCCn1c(=O)oc2ccc(C)cc21	-6	9	2	0	i	-1	-8	-7
C[C@H]1CC[C@]2(O[C@@H](CCO)C[C@@H](O)[C@@H]2O)O1	·	·	0	6	i	-35	-10	-10
O=S(=O)(NC12CC3CC(CC(C3)C1)C2)c1ccc(F)cc1	5	2	6	3	i	-35	-12	·
COc1cc(-c2ccc3oc(-c4ccsc4)cc(=O)c3c2)cc(OC)c1OC	·	·	4	-7	·	22	39	-14
C=CCn1c(SCc2nc3sc(C(=O)O)c(C)c3c(=O)[nH]2)nnc1-c1ccccc1	8	7	-4	-4	i	-2	-2	·
CC1(CC(=O)N/N=C/c2ccc(-c3ccc(C(=O)O)cc3)o2)OCCO1	1	8	4	2	i	·	-15	7
CCCOc1ccc(/C=C2\SC(N)=NC2=O)cc1OC	16	40	3	5	i	-24	-2	-4
O=C(COc1ccc(Cl)cc1Cl)Nc1ccccn1	-4	-10	7	4	·	·	26	-90
CCc1ccc(C)[n+](CC(=O)c2cccs2)c1	5	12	-2	-1	i	-78	-8	11
CCC1CCCCN1S(=O)(=O)c1ccc(NC(=O)C2CCCO2)cc1 (centres undefined)	7	13	-2	-3	i	·	-10	-10
O=C(Nc1nnc(CCN2CCCCC2)s1)c1ccccc1	-8	0	3	1	i	-5	-13	-16
O=C1CCCC(O)=C1C=Nc1ccc(O)cc1	-2	-6	3	3	i	·	-5	-15
Cc1cc(C)cc(COc2ccc3c(C)c(CC(=O)O)c(=O)oc3c2C)c1	16	-3	·	·	i	0	-13	-6
O=C1C=C(c2cccc(O)c2)C[C@@H](c2ccc(F)cc2)C1	·	·	11	-3	·	4	6	-7
CCOCCn1c(-c2ccccc2)nc2ccccc21	6	7	-3	-5	i	10	0	-15
CCCCCCNCc1ccc(Br)cc1	-4	1	4	1	i	·	-5	-15
O=C(NC1CCSc2ccccc21)c1ccccc1Cl (centres undefined)	7	-1	0	-1	i	4	-5	3
COC(=O)c1sccc1NC(=O)c1ccc(C#N)cc1	-14	1	-8	-2	i	·	2	-1
COc1ccc(NC(=O)c2ccc(NC(=O)C(C)C)cc2)c([N+](=O)[O-])c1	1	3	-1	2	i	4	8	-24
Cc1noc(C)c1C(=O)NCCc1ccc(S(N)(=O)=O)cc1	10	2	-3	0	i	-31	-3	-12
CN(CCn1ccnc1)Cc1cn(Cc2ccccc2)nc1-c1ccc2c(c1)OCO2	0	-2	4	0	i	1	10	8
CC(C)NC(=O)C(c1ccc(F)cc1)N(C(=O)CCC(=O)Nc1ccccn1)C1CCCC1 (centres undefined)	7	3	-4	-2	i	1	5	-2
CCCN(C(=O)c1ccco1)c1nnc(-c2cccc(C)c2)s1	8	-4	-3	-7	i	7	18	·
CCOC(=O)c1cc2sccc2n1CCCN1C(=O)c2ccccc2C1=O	2	3	-1	-3	i	·	8	-6
CC1CCN(CCCCOc2ccccc2F)CC1	1	-8	2	1	i	-8	-2	-4
CN1CCc2c(sc3nc(SCC(=O)N4CCOCC4)n(-c4ccc(Cl)cc4)c(=O)c23)C1	5	6	-6	0	i	-1	-4	0
O=C(CC1SC(=Nc2ccc(O)cc2)NC1=O)Nc1ccccc1 (centres undefined)	-2	-11	10	6	i	·	-10	·
O=C(c1ccc(Cl)cc1)N1CCN(c2ncccn2)CC1	1	0	3	2	i	-2	-8	-9
OCC[C@H]1C[C@H](O)[C@@H](O)[C@]2(CCCO2)O1	·	·	-1	4	i	-17	-10	-15
CCSC1=C(C#N)C(c2ccc(C)o2)CC(=O)N1 (centres undefined)	7	11	-9	-4	i	-11	-12	·
Cc1noc(C)c1S(=O)(=O)Nc1ccc(C(=O)N2CCC(C)CC2)cc1	11	0	·	·	i	·	2	·
Cc1ccc(-n2ncc3c2CCCC3NC(=O)c2csnn2)cc1C (centres undefined)	-12	5	1	-7	i	4	-3	2
CCN(CC)CCCC(C)n1c(C)cc(C(=O)NS(=O)(=O)c2ccc(C)cc2)c1C (centres undefined)	·	·	-1	-4	·	9	·	-18
O=C(NN1C(=O)/C(=C/c2ccc(O)c(O)c2)SC1=S)c1ccccc1	4	10	-31	58	i	-5	61	-3
COC(C(=O)Nc1cccc([N+](=O)[O-])c1)c1ccccc1 (centres undefined)	4	-3	-2	1	i	15	-6	-12
COc1ccc(-c2nsc(SCC(=O)NCC3CCCO3)n2)cc1 (centres undefined)	-5	-3	3	-2	i	-5	-10	·
CN(C)c1nc(OCCNC(=O)Nc2ccccc2)nc(N2CCOCC2)n1	5	-8	0	6	i	-54	·	-6
c1ccc(C(c2ccccc2)N2CCN(c3nc4ccccc4n4cnnc34)CC2)cc1	2	9	·	·	i	·	32	·
CC1CCCC(NC(=O)CCS(=O)(=O)c2ccc3c(c2)NC(=O)CS3)C1C (centres undefined)	-3	6	2	3	i	5	-9	-9
Cn1nc(C(=O)NCc2cccs2)c2ccccc2c1=O	4	1	-2	3	i	-1	-11	1
CC(C)CCn1nnnc1C(c1ccccc1)N1CCC(C(N)=O)CC1 (centres undefined)	-4	-5	1	2	i	·	-2	-14
Cc1nnc(NC(=O)C(C)Oc2ccc3c(C)cc(=O)oc3c2)s1 (centres undefined)	14	2	0	5	i	·	·	-13
Cc1ccc2nc(-c3cccc(SC4CCCCC4)c3)c(NC3CCCCC3)n2c1	·	·	-1&4	-11&-26	·	3&37	·	-7
CC(C)(C)C(=O)Nc1nc(NC(=O)C(C)(C)C)nc(-c2ccccc2Cl)n1	-1	-6	-2	0	i	8	-4	3
CCC(=O)Nc1sc2c(c1C#N)CC(C)(CC)OC2 (centres undefined)	3	-4	4	3	i	-16	14	-5
Cc1coc(C)c1C(=O)CC1(O)C(=O)N(Cc2ccccc2)c2ccccc21 (centres undefined)	-7	-12	-4	1	i	-144	1	·
Nc1nnc(SCC(=O)c2ccc3c(c2)NC(=O)CO3)s1	6	6	3	1	i	-5	-12	·
O=C(O)c1ccc(NS(=O)(=O)/C=C/c2ccccc2)cc1	3	-2	4	-2	i	·	-4	-22
Cc1cc(C)c(CSc2ncnc3nc[nH]c23)c(C)c1	28	-2	-2	0	i	8	0	-13

Continuation:
SMILES	PABP polyA inh	eIF4H FP inh	MT1-MMP act inh	MT1-MMP act inh RFP	Rce1 inh	Env fusion inh	CSC inhib	Yeast UUG start	others
COc1cc(OC)c(OC)cc1/C=N/NC(=O)c1cccc(S(=O)(=O)N2CCOCC2)c1	-9	-6	-2	-1	i	7	7	-6
O=S(=O)(Nc1nc2ccccc2nc1NCc1ccco1)c1ccc(F)cc1	7	4	-10	-3	i	-1	17	·
CCOC(=O)C1C(=O)C=C(c2ccc(C)cc2)CC1c1ccccc1 (centres undefined)	-6	-13	-2	-1	i	0	40	·
CC1CC(C)CN(CCCNC(=O)CN2C(=O)c3cccnc3Oc3ccc(Cl)cc32)C1 (centres undefined)	·	·	3	4	i	-6	5	-16
COC(=O)c1ccccc1NC(=O)c1ccc(F)cc1	6	-4	0	2	i	5	-5	-17
Cc1ccc(CNC(=O)C(=O)NCC2OCCCN2S(=O)(=O)c2ccc(F)cc2)cc1 (centres undefined)	-2	-5	1	0	i	11	1	-7
COc1ccc(-c2nc(C#N)c(NCCN(C)C)o2)cc1	·	·	4	1	i	-4	-1	-21
CSc1ccccc1OCc1cc(C(=O)NCCCn2nc(C)cc2C)no1	7	1	0	2	i	24	10	-3
COc1ccccc1NC(=O)c1cccc(S(=O)(=O)N2CCOCC2)c1	5	2	3	0	i	·	-7	3
CCCCNC(=O)C1(C)CCN1C(=O)Cc1cccc2ccccc12 (centres undefined)	·	·	8	5	·	-35	·	4

Reprinted at random: 2 compounds from above
SMILES	PABP polyA inh	eIF4H FP inh	MT1-MMP act inh	MT1-MMP act inh RFP	Rce1 inh	Env fusion inh	CSC inhib	Yeast UUG start	others
COc1ccc(-c2nc(C#N)c(NCCN(C)C)o2)cc1	·	·	4	1	i	-4	-1	-21
CCCCNC(=O)C1(C)CCN1C(=O)Cc1cccc2ccccc12 (centres undefined)	·	·	8	5	·	-35	·	4

Next section:
SMILES	PABP polyA inh	eIF4H FP inh	MT1-MMP act inh	MT1-MMP act inh RFP	Rce1 inh	Env fusion inh	CSC inhib	Yeast UUG start	others
COc1ccc(CNC(=O)CN(c2cccc(OC)c2)S(C)(=O)=O)cc1	6	-1	-1	1	i	-14	6	-12
CC(=O)Nc1ccc(S(=O)(=O)Nc2cccc(-c3nc4cc(C)ccc4o3)c2)cc1	·	·	-2	-21	i	8	25	1
Cc1cn(CC(=O)NCCCc2ccccc2)c(=O)[nH]c1=O	·	·	-1	1	·	16	·	-11
O=C(NCc1cccs1)C1CC(=O)N(c2ccccc2)C1 (centres undefined)	-4	7	4	1	i	11	5	-2
O=C(CN1CCCCC1)Nc1ccc(F)c(Cl)c1	-2	2	2	2	i	·	-5	-11
O=C(CSc1cccc[n+]1[O-])N1CCCc2ccccc21	6	0	0	1	i	8	1	·
CCCCC1=CC2=CC(=O)C(C)(OC(=O)CC)C(=O)C2=CN1C1CCCC1 (centres undefined)	14	34	·	·	i	-97	-5	2
O=C(Nc1ccc(F)cc1)Nc1ccc(Oc2ncnc3cc(Cl)ccc23)nc1	5	-12	-1	1	i	6	-7	-9
CC[C@@]12C(=O)N(c3ccc(OC)cc3)C(=O)N1[C@H](c1ccc(Cl)cc1)[C@@H]1C(=O)N(C3CCCCC3)C(=O)[C@@H]12	3	-8	-1	-9	i	87*	6	-7
O=C(c1cc2c(s1)CCC2)N1CCN(c2ccccc2)CC1	47	86	-1	0	i	·	6	-5	eIF4H FP inh retest=8;PABP polyA inh retest=9
O=C(CSc1ncnc2c1cnn2CCO)Nc1cccc(C(F)(F)F)c1	4	-4	-6	-7	i	23	-1	-18
CC1CCC(NC(=O)C2CC(=O)N(c3ccc4c(c3)OCCO4)C2)CC1 (centres undefined)	-9	-5	3	5	·	9	-3	·
CCCN1CCN(C(=O)CCCNC(=O)c2ccc(Cl)cc2)CC1	-1	-7	1	0	i	10	-12	-21
Cc1cc(C(=O)C(C)OC(=O)C2=NNC(=O)CC2)c(C)n1-c1ccc(OC(F)F)cc1 (centres undefined)	-4	-6	-3	-12	i	·	-1	13
COc1ccc(N2CCN(CCC(=O)c3ccc4ccccc4c3)CC2)cc1	-3	3	-2	4	i	3	4	-14
COc1ccccc1N1CCN(CC(=O)Nc2nc(C)c(C(=O)N(C)C)s2)CC1	1	6	1	2	i	-101	-5	-16
CC(=O)c1ccc(N2CCN(S(=O)(=O)c3c(C(=O)N4CCCCC4)c(C)n(C)c3C)CC2)cc1	15	-19	2	-3	i	-8	12	-12
COc1ccc(-n2nc(C(=O)NCC(=O)N3CCCCCC3)c3ccccc3c2=O)cc1Cl	12	5	3	-6	i	-22	-8	1
O=C(CNCC1CCCO1)Nc1ccccc1-n1cccc1 (centres undefined)	-3	-12	4	-1	i	10	-5	-19
C/C(=N/NC(=O)c1ccc(NC(=O)c2ccc(F)cc2)cc1)c1ccccc1	-10	-8	-7	-2	i	·	-1	-2

3 compounds from above, sorted by count of non-hydrogen atoms, falling:
SMILES	PABP polyA inh	eIF4H FP inh	MT1-MMP act inh	MT1-MMP act inh RFP	Rce1 inh	Env fusion inh	CSC inhib	Yeast UUG start	others
COc1ccccc1N1CCN(CC(=O)Nc2nc(C)c(C(=O)N(C)C)s2)CC1	1	6	1	2	i	-101	-5	-16
CC1CCC(NC(=O)C2CC(=O)N(c3ccc4c(c3)OCCO4)C2)CC1 (centres undefined)	-9	-5	3	5	·	9	-3	·
CCCN1CCN(C(=O)CCCNC(=O)c2ccc(Cl)cc2)CC1	-1	-7	1	0	i	10	-12	-21

An excerpt, so the mix of outcomes need not match the whole.
